Screening data deposited in PubChem BioAssay by several laboratories.
CBX7 AlphaScr: CBX7 chromodomain binding inhibitors, primary screen, biochemical, AlphaScreen. Chromobox protein homolog 7 (Homo sapiens), O95931. AlphaScreen His6-CBX7 / biotin-H3K27me3 peptide binding; active compounds read low. normalised signal (fraction of DMSO) (no concentration beside the values). 66,000 tested, 1.1% active. AID 1224903, 2016; in the data active = normalised signal below about 0.5;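 note: 100 nL library stock added to about 20 µL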
Target sequence (O95931 whole entry, looked up): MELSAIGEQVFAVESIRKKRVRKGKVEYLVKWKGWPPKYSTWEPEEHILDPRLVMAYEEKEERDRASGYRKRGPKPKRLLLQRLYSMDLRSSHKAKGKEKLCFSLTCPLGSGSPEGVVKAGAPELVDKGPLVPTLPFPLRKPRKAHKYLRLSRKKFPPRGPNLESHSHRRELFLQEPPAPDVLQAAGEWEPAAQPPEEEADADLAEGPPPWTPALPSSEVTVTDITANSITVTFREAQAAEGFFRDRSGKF
CBX7 AlphaScr z-score: also measured in CBX7 AlphaScr; calls as there; z-score; measured here: z-score of CBX7 signal; some inactives read as strong as hits; reference of the scale not given here;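 same signal on another scale; lower means less binding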
Active calls of the source: *. These rows are one share of the data. The share of hits here may be higher or lower than overall.

Second line of a record: CBX7 AlphaScr z-score, CBX7 AlphaScr
CCCCCCNc1nc(-c2ccccc2)c2c(c1C#N)CC(C)(C)OC2
→ 15, 1.4
CCOC(=O)c1c(C2COc3ccccc3O2)csc1NC(=O)c1ccccc1 (centres undefined)
→ 5.4, 1.1
CC(C)(C)C(=O)CSc1nc2ccccc2nc1Cc1ccc(F)cc1
→ 0.85, 1.2
Cc1nc(N2CCC(C)CC2)c2c(C)c(C(=O)NCCC3=CCCCC3)sc2n1
→ -3, 0.79
COc1ccc2c(c1)CCc1sc(NC(=O)c3ccccc3F)nc1-2
→ 3.6, 1.1
Cc1cccc(C(=O)Nc2c(C(=O)N(C)C)cnn2-c2ccccc2)c1
→ 1.6, 1.2
Cc1cccc(N2CCN(S(=O)(=O)c3ccc4c(c3)CCN4C(=O)CCC(=O)O)CC2C)c1 (centres undefined)
→ -2.3, 0.86
Cc1noc(NS(=O)(=O)c2ccc(NC(=O)COc3ccccc3Br)cc2)c1C
→ -1.4, 0.94
Cc1ccc(CNC(=O)c2cc3sc(Cl)cc3n2C)cc1
→ -0.44, 0.99
CCOc1ccc(NC(=O)CN(C)S(=O)(=O)c2cnc[nH]2)cc1
→ 1.1, 1.1
CCc1ccc(-c2nc(CN3CCC(C(=O)NCC4CCCN4CC)CC3)c(C)o2)cc1 (centres undefined)
→ 0.11, 1.1
COCCNC(=O)c1c[nH]c2ccc(S(=O)(=O)Nc3ccccc3F)cc2c1=O
→ 1.7, 1.1
COc1ccc(N2C(=O)CC(NCCc3ccc(S(N)(=O)=O)cc3)C2=O)cc1F (centres undefined)
→ 1.8, 1.2
CN1C(=O)C(O)(CC(=O)c2ccc(N)cc2)c2ccccc21 (centres undefined)
→ 0.87, 1.1
Cc1oc(-c2cccc(Br)c2)nc1CN1CCC(C(=O)NC2CCC(C)CC2)CC1 (centres undefined)
→ -0.56, 0.96
O=C(NC1CCCC1)c1ccc2c(c1)N(Cc1ccc(F)cc1)C(=O)CS2
→ 1, 1.1
O=C(CC1Oc2ccc(Cl)cc2NC1=O)NCCCN1CCOCC1 (centres undefined)
→ 0.27, 1
COc1ccc(CNC(=O)c2cc3c(-c4ccc(Cl)cc4)nn(C)c3s2)cc1
→ 1.2, 1.3
CCCCN(CCCC)CCNC(=O)CN1C(=O)COc2ccccc21
→ -0.038, 1
CCCCSCCCNC(=O)c1cc(Nc2ccccc2OC)nc2ccccc12
→ 5.9, 1.3
CCN(CCCNC(=O)CN1C(=O)COc2ccc(C(C)(C)C)cc21)c1cccc(C)c1
→ -13*, 0.27*
Clc1ccc(Nc2c(-c3ccncc3)nc3ccc(Cl)cn23)cc1
→ 0.27, 1
CCc1ccc(NC(=O)c2cc(-c3cccc(OC)c3)nc3ccccc23)cc1
→ 1.9, 1
Cc1c(C(=O)Nc2ccccc2C(F)(F)F)sc2ncn(CC(=O)N3CCCC(C)C3)c(=O)c12 (centres undefined)
→ 0.34, 1
CCN(c1ccccc1)c1cc(C)nc2nc(C)nn12
→ 0.54, 1
Cc1ccc(S(=O)(=O)N2CCC(C(=O)Nc3ccc(Cl)cc3)CC2)cc1
→ 2.1, 1.1
O=C(c1ccc2c(c1)OCO2)c1cn(Cc2ccc(F)cc2)c2cc3c(cc2c1=O)OCO3
→ -1.8, 0.81
COc1ccc(Nc2cc(-n3nc(C)cc3-c3ccccc3)ncn2)cc1
→ -3.6, 0.67
CN1CCN(C(C(=O)NC2CCCC2)c2ccc(Cl)cc2)CC1 (centres undefined)
→ 1.2, 1.1
Cc1nc2ccccn2c1C(=O)Nc1ccc(C(C)C)cc1
→ -2.3, 0.86

Continued:
Second line of a record: CBX7 AlphaScr z-score, CBX7 AlphaScr
COc1ccc(Cl)cc1N(C)C(=O)Cn1nc(Cc2cccnc2)c2ccccc2c1=O
→ -1.4, 0.96
COc1ccc(NC(=O)C(c2ccc(C)cc2)N(C)C(=O)c2cnccn2)cc1 (centres undefined)
→ -1.6, 0.93
O=S(=O)(c1ccccc1)c1nc(-c2cccc(Br)c2)oc1N1CCCCCC1
→ -4.9, 0.81
O=C(NCCc1nc2ccccc2[nH]1)c1ccccc1
→ 1.8, 1
CCCNC(=O)Cn1cnc2sc(C(=O)Nc3ccc(F)cc3F)c(C)c2c1=O
→ 1.5, 1
Cc1cccc(C)c1Nc1c(-c2ccc(Cl)cc2)nc2sccn12
→ -0.62, 0.95
COc1ccc(C2=NOC(C(=O)Nc3ccc(C)cc3)C2)cc1OC (centres undefined)
→ 1.3, 1
Cc1ccc(NC(=O)Cn2cnc3sc(C(=O)N4CC(C)CC(C)C4)c(C)c3c2=O)cc1Cl (centres undefined)
→ -1.2, 0.95
Cc1ccc2c(c1)c1c(n2CC(O)CNc2cccc(C)c2C)CCCC1 (centres undefined)
→ -3, 0.72
Cc1ccccc1NC(=O)C(C(C)C)N1C(=O)c2ccccc2C1=O (centres undefined)
→ 0.64, 1.1
Cc1cccc(-n2ccnc2SCC(=O)Nc2ccc(F)cc2)c1C
→ -0.18, 0.82
CCS(=O)(=O)N1CCCC(C(=O)NCc2cccc(OC)c2)C1 (centres undefined)
→ 2.1, 1
COc1cccc(Cn2c(=O)n(Cc3ccc(C)cc3)c(=O)c3cccnc32)c1
→ 2.6, 1.1
Cn1c(SCC(=O)Nc2ccc(Cl)cc2)nnc1-c1c[nH]c2ccccc12
→ -1.7, 0.83
COc1ccc(Cl)cc1NS(=O)(=O)c1ccc2c(c1)CC(C)N2C(C)=O (centres undefined)
→ -0.73, 0.82
CCOC(=O)N1CCC(Nc2c(NC3CCCCC3)c(=O)c2=O)CC1
→ 0.26, 1
COc1ccc(C(=O)Nc2c3c(nn2-c2cccc(C)c2C)CSC3)cc1OC
→ -0.0026, 1
Cc1ccc(NC(=O)CN2C(=O)CC(c3ccccc3)Sc3ccccc32)c(C)c1 (centres undefined)
→ 1.9, 1.1
O=C(Cn1nc(-c2ccccc2)c2cc(Cl)ccc21)NCCCN1CCCCCC1
→ 1.6, 1.1
CCCCCCc1c(O)nc(SCCN(CC)CC)[nH]c1=O
→ 2.6, 1.1
Cc1ccc(NC(=O)C2CCCN2S(=O)(=O)c2ccc3c(c2)n(C)c(=O)c(=O)n3C)cc1C (centres undefined)
→ -0.026, 0.98
Cc1ccc(S(=O)(=O)NCC(c2ccccc2)N2CCCCC2)cc1 (centres undefined)
→ 0.67, 1
Cc1cc(N2CCN(c3ccccc3F)CC2)n2nc(C)c(-c3ccc(Cl)cc3)c2n1
→ 1.1, 1.1
Cc1ccc(Cc2c(C)nc3c(C(=O)NCc4ccccc4)cnn3c2C)cc1
→ -1.3, 0.95
Cc1c(C(=O)Nc2ccc(F)c(F)c2)oc2ccc(S(=O)(=O)N3CC(C)CC(C)C3)cc12 (centres undefined)
→ 0.83, 1
COc1ccc(S(=O)(=O)Nc2ccc3oc4c(c3c2)C(=O)CC(C)(C)C4)cc1
→ 0.23, 1
CC1CCC(NC(=O)c2ccc3c(c2)N(Cc2ccc(F)cc2)C(=O)CS3=O)CC1 (centres undefined)
→ -1.3, 0.94
Cc1ccc(NC(=O)Cn2c(SCc3ccc(F)cc3)nc3ccncc32)c(C)c1
→ -1.9, 0.96
CN1CCN(C(=O)c2ccc(C#Cc3ccccc3)cc2)CC1
→ 0.067, 1
CCOC(=O)c1cnc2ccccc2c1Nc1ccccc1C
→ -1.2, 0.89

Structural class: those above with an NH in an aromatic ring.
Second line of a record: CBX7 AlphaScr z-score, CBX7 AlphaScr
CCOc1ccc(NC(=O)CN(C)S(=O)(=O)c2cnc[nH]2)cc1
→ 1.1, 1.1
COCCNC(=O)c1c[nH]c2ccc(S(=O)(=O)Nc3ccccc3F)cc2c1=O
→ 1.7, 1.1
O=C(NCCc1nc2ccccc2[nH]1)c1ccccc1
→ 1.8, 1
Cn1c(SCC(=O)Nc2ccc(Cl)cc2)nnc1-c1c[nH]c2ccccc12
→ -1.7, 0.83
CCCCCCc1c(O)nc(SCCN(CC)CC)[nH]c1=O
→ 2.6, 1.1

Carrying on.
Second line of a record: CBX7 AlphaScr z-score, CBX7 AlphaScr
COc1ccc(CCNc2nc(-c3ccccc3F)nc3ccccc23)cc1OC
→ -1.8, 0.93
Cc1ccc(C(=O)Nc2c(-c3cccs3)nc3cc(C)ccn23)cc1
→ 1.4, 1.1
Cc1cc2c(=O)n(CC(=O)Nc3c(F)cccc3F)cnc2s1
→ -0.16, 1
COc1ccc(N2C(=O)c3ccccc3NC2c2cc(OC)c(OC)c(OC)c2)cc1 (centres undefined)
→ -0.98, 0.91
COc1ccc(C2(c3cccc(F)c3)CCCCC2)cc1
→ 3.9, 1.1
O=C1CC(N2CCN(c3ccccc3)CC2)C(=O)N1c1cc(Cl)cc(Cl)c1 (centres undefined)
→ -0.11, 0.99
Cc1ccccc1-c1noc(-c2cc(-c3ccc(F)cc3)nc3ccccc23)n1
→ 0.12, 1.1
CC(=O)Nc1ccc(C(=O)NCc2ccncc2)cc1
→ 2.4, 1.1
CCOC(=O)c1cnc2c(C)cc(Cl)cc2c1Nc1cccc(Cl)c1C
→ 0.52, 1.1
CCCCNS(=O)(=O)c1cc(-c2nnc(OC)c3ccccc23)ccc1C
→ -1.8, 0.85
COc1cccc(CN2C(=O)c3ccccc3C2C(=O)NC2CCCCCC2)c1 (centres undefined)
→ -0.2, 0.94
COc1cccc(CNC(=O)C2CC(=O)N(C3CCCCCCC3)C2)c1 (centres undefined)
→ 1.3, 1
Cc1cc(-c2ccccc2)nc2cc(C(=O)N3CCCC3)nn12
→ 0.41, 1
CC(C)c1ccc(NC(=O)C2CCCN(S(=O)(=O)c3cccs3)C2)cc1 (centres undefined)
→ 0.53, 1
COc1ccc(CCNC(=O)CSc2nnnn2-c2ccccc2OC)cc1OC
→ -1.1, 0.95
Cc1ccc(C2NC(c3ccc(C)cc3)C(C)C(=O)C2C)cc1 (centres undefined)
→ 4.4, 1.1
COc1ccc(CN(C(=O)c2ccc(OC(C)C)cc2)C2CCS(=O)(=O)C2)cc1OC (centres undefined)
→ -0.11, 0.89
Cc1ccc2c(c1)N(CC(=O)NCCCOC(C)C)C(=O)CO2
→ 0.17, 1
COc1ccc(N2C(=O)CCC(C(=O)NCc3ccc(F)cc3)C2c2ccc(OC)c(OC)c2)cc1 (centres undefined)
→ 1.5, 1.1
CCOC(=O)c1cccc(NC(=O)CS(=O)(=O)Cc2nc(-c3cccc(OC)c3)oc2C)c1
→ -0.36, 0.99
O=C(c1cccc(NC2=NC3CS(=O)(=O)CC3S2)c1)N1CCCC1 (centres undefined)
→ -2.4, 0.78
O=C(CN1CCN(Cc2ccc(F)cc2)C1=O)NCc1ccccc1Cl
→ 2.1, 1.1
CCOc1ccc(CC(=O)NCCc2cc3ccc(C)cc3[nH]c2=O)cc1
→ -1.6, 0.95
C=C(C)C1Cc2c(C)nn(-c3cc(C)nc(C)n3)c2C1 (centres undefined)
→ 0.42, 1
Cc1ccn2c(Nc3ccccc3C)c(-c3ccc(C)s3)nc2c1
→ -0.51, 0.95
CCOC(=O)N1CCC(Nc2c(N3CCC(C)CC3)c(=O)c2=O)CC1
→ 0.73, 1
Cc1ccc(-n2c3c(cc(C(=O)NCCCN4CCOCC4)c2=O)C(=O)CCC3)cc1
→ -0.022, 1
O=C(NCc1ccc(F)cc1)c1cc(C2CC2)on1
→ -0.036, 1
Cc1cc(N2CCC(C)CC2)nc2ccc(NC(=O)CCC(=O)NC(C)C)cc12
→ 0.9, 1
CCC(=O)N1CCc2cc(S(=O)(=O)Nc3cc(Cl)ccc3OC)ccc21
→ 2.6, 1.1

Filtered by structure, those above containing a furan ring, fused or not.
Second line of a record: CBX7 AlphaScr z-score, CBX7 AlphaScr
Cc1c(C(=O)Nc2ccc(F)c(F)c2)oc2ccc(S(=O)(=O)N3CC(C)CC(C)C3)cc12 (centres undefined)
→ 0.83, 1
COc1ccc(S(=O)(=O)Nc2ccc3oc4c(c3c2)C(=O)CC(C)(C)C4)cc1
→ 0.23, 1

Next part.
Second line of a record: CBX7 AlphaScr z-score, CBX7 AlphaScr
CC(C)OCCCNC(=O)CC1Sc2ccccc2NC1=O (centres undefined)
→ 1.4, 1.1
Cc1nn(Cc2ccc(Cl)cc2)c(C)c1NC(=O)c1cc(C(C)C)on1
→ -2.1, 0.8
O=C(NCCC1=CCCCC1)c1cc(=O)[nH]c2ccc(S(=O)(=O)N3CCCCC3)cc12
→ 0.92, 1.1
O=C(CNC(=O)Cn1ccc2ccccc2c1=O)NCc1ccccn1
→ 0.95, 1
CN(C)CCn1c2c(c3ccccc31)CCCn1nnnc1-2
→ -6.2, 0.76
COc1ccc(OC)c(NC(=O)c2ccc3c(c2)C(=O)N(c2ccccn2)C3=O)c1
→ -1.8, 0.93
O=C(NCC1CCCO1)C1C2C=CC3(CN(Cc4cccs4)C(=O)C13)O2 (centres undefined)
→ -2.5, 0.77
COc1cccc(NC(=O)c2n[nH]c(=O)c3ccccc23)c1
→ 1.2, 1.2
COc1ccc(Cl)cc1NC(=O)c1c(NCc2ccncc2)sc2c1CCC2
→ -2.9, 0.94
CCCN(CCC)C(=O)c1cc2c(n(-c3ccccc3)c1=O)CC(C)(C)CC2=O
→ -0.76, 0.93
Cc1cccc(NC(=O)C2CCCN(S(=O)(=O)c3cccc4cccnc34)C2)c1 (centres undefined)
→ 0.38, 1

Compounds listed so far that have a tert-butyl group, in the order listed:
Second line of a record: CBX7 AlphaScr z-score, CBX7 AlphaScr
CC(C)(C)C(=O)CSc1nc2ccccc2nc1Cc1ccc(F)cc1
→ 0.85, 1.2
CCN(CCCNC(=O)CN1C(=O)COc2ccc(C(C)(C)C)cc21)c1cccc(C)c1
→ -13*, 0.27*
